# Assay outcomes from PubChem.
# CSC inhib – cancer stem cell viability inhibitors, primary screen, luminescence; cancer stem cell-like cells viability; inhibition, % at 7.5 µM; actives 1.1% (n = 300,000); AID 2717, 2010;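 active = mean at 75% or more and at least half the replicates too; inconclusive = mean and replicates disagree; tested in HMLE shEcad cells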;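 also: 0% = median of negative and 100% = median of positive control wells; the first replicate is given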
# HIV Env fusion – inhibitors of HIV-1 Env-driven cell-cell fusion, primary screen, HeLa-JRFL effector, CEM21 target cells, luciferase; inhibition, % at 12.3 µM; actives 1.1% (n = 360,000);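 active = mean replicate inhibition score of at least 50 and every replicate individually at or above 50; inconclusive = only one of the two criteria met; inactive = mean below 50 and not all replicates reaching 50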;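 also: 0% = plate neutral controls and 100% = maraviroc near 300 nM; one replicate is shown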
# eIF4H FP inh – human eIF4H binding inhibitors, primary screen, translation initiation inhibitor project, biochemical, uHTS, fluorescence polarization; actives 0.94% (n = 290,000); inhibition, % at 35 µM; eIF4H fluorescence polarization binding assay; Eukaryotic translation initiation factor 4H (Homo sapiens), Q15056;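 active = 50% or more with normal probe brightness, or confirmed in later tests; inconclusive = above 50% with abnormal brightness, or retests that disagree; inactive = below 50% or failed in later tests; about a fifth of its hits are not listed in these tables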;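 also: calls also rest on retests at 20 µM and on dose response follow-up; 0% = protein and probe with vehicle and 100% = probe without protein; strong numbers were not always called active; many hits fall short of the cut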
# MT1-MMP act inh – blockers of MT1-MMP proenzyme processing, primary screen, HT1080 RFP-PRO-GFP cells, GFP/RFP fluorescence; GFP/RFP ratio change, % at 20 µM; GFP/RFP ratio fluorescence, overnight; percent of plate control window, DMSO zero; Matrix metalloproteinase-14 (Homo sapiens), P50281; actives 0.061% (n = 360,000); AID 651647, 2012;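 active = GFP/RFP ratio change of at least 30% with cell ATP level not reduced by more than half and red fluorescence within 50% of control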; also: strong numbers were not always called active
#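 Assay system: HT1080 RFP-PRO-GFP cells | Dosing: 20 µM single dose, 1% DMSO | Incubation: Cells overnight before dosing, compound overnight, 37 °C, 5% CO2 | Evaluation: GFP/RFP fluorescence ratio | Control set: DMSO-only wells and HT1080 RFP-L50D-GFP cell wells as references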
# Rce1 inhib – yeast Rce1p protease inhibitors, primary screen, biochemical, fluorescence, cell-free homogeneous; yeast membranes, quenched prenylated peptide cleavage fluorescence; actives 0.27% (n = 290,000); calls only; CAAX prenyl protease 2 (Saccharomyces cerevisiae (strain ATCC 204508 / S288c)), Q03530;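 active = fall in fluorescence gain of 50% or more versus controls, with final raw signal at or below 3038400; inconclusive = same 50% fall but final raw signal above 3038400; inactive = fall in fluorescence gain under 50%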;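 also: plate controls were neutral control wells for no effect and wells lacking membranes for full effect; tested at 10 µM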
# Target sequence (Q03530 whole entry, looked up): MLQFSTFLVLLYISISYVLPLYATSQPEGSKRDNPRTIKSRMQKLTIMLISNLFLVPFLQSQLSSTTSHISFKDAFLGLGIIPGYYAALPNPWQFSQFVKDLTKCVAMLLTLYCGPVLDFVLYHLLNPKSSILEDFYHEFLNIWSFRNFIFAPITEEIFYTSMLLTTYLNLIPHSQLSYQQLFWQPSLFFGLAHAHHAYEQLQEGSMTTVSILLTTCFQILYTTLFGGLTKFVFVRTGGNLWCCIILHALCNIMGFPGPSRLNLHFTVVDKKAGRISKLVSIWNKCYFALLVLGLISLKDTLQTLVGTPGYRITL
# UUG fidelity – modulators of yeast start codon fidelity, primary screen, whole organism, S. cerevisiae, single point, plate reader. S. cerevisiae UUG-firefly luciferase reporter, luminescence/redox ratio. activity score, % at 18.7 µM. actives 0.13% (n = 350,000). AID 602363, 2012;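 active = replicate mean at a twofold rise or more, about +100% in these data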;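 also: firefly luciferase made from a UUG start codon reports start codon fidelity; reporter light over untreated wells divided by growth signal over untreated wells; some hits fall short of that in this replicate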
# PABP polyA inh – PABP poly(A) RNA binding inhibitors, primary screen, biochemical, fluorescence polarization, uHTS | Polyadenylate-binding protein 1 (Homo sapiens), P11940 | inhibition, % at 35 µM | actives 1% (n = 290,000);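 active = 50% or more with normal probe brightness, or confirmed in later tests; inconclusive = above 50% with abnormal brightness, or retests that disagree; inactive = below 50% or failed in later tests; about a fifth of its hits are not listed in these tables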;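 also: calls also rest on retests at 20 µM and on dose response follow-up; controls were probe without protein and protein plus probe with vehicle; some compounds called inactive have numbers as strong as hits; many hits fall short of the cut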
# MT1-MMP act inh RFP – recorded beside MT1-MMP act inh, whose call it bears; RFP signal change, %; measured here: RFP expression control read;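 0 = vehicle wells; hits needed this value within 50% of zero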
# Active calls of the source: *; i = inactive; u = inconclusive; x = no result given.
SMILES,CSC inhib,HIV Env fusion,eIF4H FP inh,MT1-MMP act inh,MT1-MMP act inh RFP,Rce1 inhib,UUG fidelity,PABP polyA inh
CCCOc1ccc(S(=O)(=O)n2cc(F)c(=O)[nH]c2=O)cc1,9.2,13.4,-8.0,2.5,0.7,x,18.1,10.0
COc1ccccc1NC(=S)N(C(C)C)C(C)c1ccccn1 (stereo not given),-10.5,-2.2,4.5,2.4,-0.5,i,x,5.8
CC(C)CC(=O)Nc1ccc(-c2nc3ccccc3c(=O)[nH]2)cc1,-2.4,-54.6,-1.7,2.7,-1.1,i,x,u
COc1ccc(CCNS(=O)(=O)c2cc(/C=C/C(=O)O)ccc2C)cc1OC,-13.3,9.5,-1.2,0.5,2.4,i,x,-0.6
O=C(O)c1cc(Br)ccn1,-10.8,2.5,-2.6,-0.8,5.4,i,x,-7.7
COc1ccccc1CNC(=O)COC(=O)C1CCN(c2ccc(C(F)(F)F)cn2)CC1,-4.2,3.0,x,0.7,3.5,i,-7.1,x
COc1ccc(CNC(=S)Nc2cccc(C)c2)cc1,3.7,x,4.2,-2.0,-0.7,i,-34.9,-3.9
CN(C)c1nc(N)nc(-c2cccnc2)n1,-6.7,x,-7.1,0.4,0.0,i,-15.4,33.4
CCOCCc1nnc(NC(=O)CCc2ccccc2)s1,-1.1,4.1,-9.7,x,x,i,x,0.1
Cc1cc2n(n1)SC(Nc1ccc(F)cc1)N2 (stereo not given),-0.2,-23.2,6.2,2.3,-3.5,i,-38.6,-7.2
CC1CC2=C(NC(=S)NC2c2cccc(F)c2)/C(=C/c2cccc(F)c2)C1 (stereo not given),x,20.8,-2.4,5.1,-5.0,i,x,11.2
COc1ccc(CN2C[C@@H](CO)O[C@@H](n3cnc4c(NCc5ccncc5)ncnc43)C2)cc1,x,4.9,x,3.2,8.1,x,-15.2,x
Cc1ccccc1OCC(=O)NCCCNC(=O)c1cccnc1,-10.9,8.0,-9.4,5.0,3.8,i,-10.6,6.8
CCN(CC)C(=O)C[n+]1cccc(C(N)=O)c1,3.6,5.2,0.6,1.1,5.0,i,-31.2,-13.3
Clc1ccccc1-c1nc2ccccc2[nH]1,4.1,-42.2,5.4,-2.2,-5.9,i,-19.0,5.6
CC(C)(C)C1(C)OC(C(N)=O)C(C(N)=O)O1 (stereo not given),-5.4,x,-7.4,-2.6,2.4,i,-3.6,30.0
O=C(CCNc1ccc(Cl)c(C(F)(F)F)c1)c1ccco1,14.2,-50.5,-7.9,-10.9,-2.2,i,3.8,-10.9
O=C(N=Nc1c(O)n(Cc2ccccc2)c2ccccc12)c1ccc(O)cc1,33.8,-49.3,6.5,-1.4,-14.0,i,-14.2,7.9
Brc1ccc(-c2noc(-c3ccccn3)n2)o1,3.4,-30.5,6.2,-2.4,1.5,i,x,7.2
Cc1ccc2ccc3cccnc3c2n1,-9.8,12.2,x,2.7,-8.6,i,-37.0,x
CCC(=O)NC(=S)Nc1ccc(-c2nc3ccc(C)cc3s2)cc1,-2.1,-67.7,0.1,5.9,5.2,i,-12.7,-5.8
CCCCN(C)CCCNC(=O)CN1N=C(c2ccc(Cl)cc2)CCC1=O,1.6,20.3,8.9,1.1,3.8,i,-11.8,-5.6
O=C(NC1CCCCC1)C1CCN(S(=O)(=O)N2CCCCCC2)CC1,-3.9,1.9,15.1,2.1,0.5,i,-9.9,0.4
O=c1cc(N2CCc3ccccc3C2)[nH]c(=O)n1C1CCCCC1,-8.0,x,-4.5,-40.3,-23.2,i,x,-9.7
NNC(=S)Nc1ccc(C(F)(F)F)cc1Cl,37.8,10.0,-0.8,2.0,2.4,i,x,6.4
CCC(=O)NC(Nc1nc2ccc(C)cc2s1)(C(=O)OC)C(F)(F)F (stereo not given),6.0,1.1,1.5,-5.2,-2.8,i,-5.8,2.2
c1ccc(Nc2ccc3c4c(cccc24)CC3)cc1,11.8,-6.5,16.2,-106.4,42.7,i,-14.9,-15.3
Cn1c(=O)c2[nH]c(NN=Cc3cccc(Br)c3)nc2n(C)c1=O,x,-10.9,x,0.2,-1.1,x,-15.9,x
CC(=O)OCC1OC(n2ccc3ccccc32)C(OC(C)=O)C(OC(C)=O)C1OC(C)=O (stereo not given),0.1,-55.3,-7.1,-9.3,-3.4,i,-17.8,-8.1
Cc1cc(Cc2cc(C)c(N)cc2C)c(C)cc1N,-13.9,10.2,-6.6,2.0,-0.4,i,-10.9,1.2
CC1CCC/C(=C\c2ccc(O)cc2)C1=O (stereo not given),x,-3.9,x,-3.7,-1.9,i,-22.4,x
O=C(N/N=C/c1cccc(Oc2ccccc2)c1)c1ccc(O)cc1O,15.7,12.3,-10.1,5.4,4.5,i,-13.8,-7.8
Cc1cc(C)n(C(=O)CCC2COc3ccccc3O2)n1 (stereo not given),2.6,x,3.4,-1.2,5.0,i,7.6,-4.7
CC(=O)c1ccc(OC(C)c2nc3ccccc3s2)cc1 (stereo not given),-14.8,-33.7,-2.2,1.4,4.3,i,-3.9,-4.4
CCN1C[C@@H]2[C@@H]3C(=O)N(C)C(=O)[C@@H]3[C@](Cc3ccccc3)(C1=O)N2C(=O)c1ccc(C)cc1,x,-0.7,x,-0.1,1.3,x,-5.3,x
CCCOc1ccc(Cc2c(Cl)nc(SC)nc2NC)cc1,x,37.8,0.3,-6.7,-26.7,i,x,1.6
Cc1ccc(C(C(=O)NCC2CCCO2)N(C(=O)c2snc(C(N)=O)c2N)c2ccc(C(C)C)cc2)o1 (stereo not given),-1.4,1.8,-10.4,-3.3,-2.9,i,-11.0,-5.9
O=C(Nc1ccc(N2CCCC2)cc1)c1cc(Cl)ccc1Cl,-6.9,5.4,6.3,1.8,2.9,i,-9.9,1.7
CCOCCn1c(C(C)O)nc2ccccc21 (stereo not given),x,x,-6.9,1.3,1.4,i,-7.4,-1.9
Cn1ncc(Br)c1NC(=O)c1ccco1,8.3,x,-15.0,1.2,2.4,i,-15.7,3.3
Cc1ccc(NC2(C#N)CCCC2)cc1,x,-13.4,x,-3.0,1.3,x,-20.1,x
Cc1nc(-c2cccc(S(=O)(=O)N3CCCCCC3)c2)cs1,-4.9,x,-7.8,0.5,-3.5,i,x,-1.2
Cc1ccc(C2=Nc3c(ccc4ccccc34)C(c3ccncc3)=NN2)cc1,x,5.0,5.7,-4.1,1.9,i,x,-2.4
CSc1nc2ccc(NC(=O)c3cccs3)cc2s1,3.0,-165.8,x,1.7,-4.3,x,-3.1,x
CSc1ccccc1OCc1cc(C(=O)N2C[C@H]3CC[C@H]2C3)no1,4.1,-63.2,-10.0,0.8,2.2,i,2.0,-4.5

# Complete entries, quoted from the list.
# Results for CCCOc1ccc(Cc2c(Cl)nc(SC)nc2NC)cc1 : CSC inhib: x; HIV Env fusion: 37.8; eIF4H FP inh: 0.3; MT1-MMP act inh: -6.7; MT1-MMP act inh RFP: -26.7; Rce1 inhib: i; UUG fidelity: x; PABP polyA inh: 1.6
# Results for CCOCCn1c(C(C)O)nc2ccccc21 (stereo not given) : CSC inhib: x; HIV Env fusion: x; eIF4H FP inh: -6.9; MT1-MMP act inh: 1.3; MT1-MMP act inh RFP: 1.4; Rce1 inhib: i; UUG fidelity: -7.4; PABP polyA inh: -1.9

# Next section
SMILES,CSC inhib,HIV Env fusion,eIF4H FP inh,MT1-MMP act inh,MT1-MMP act inh RFP,Rce1 inhib,UUG fidelity,PABP polyA inh
Cc1ccc(NS(=O)(=O)c2ccc(NC(=O)C(C)Sc3ccc(Cl)cc3)cc2)c(C)c1 (stereo not given),76.8*,27.1,1.1,-7.6,-12.2,i,x,21.2
O=C(NCc1ccc(F)cc1)c1cc(-c2ccccn2)nc2ccc(S(=O)(=O)N3CCOCC3)cc12,x,-0.2,x,-0.8,1.5,x,-2.5,x
O=C(c1ccc(Cl)cc1)C1CCCN(C(=O)/C=C/c2ccccn2)C1 (stereo not given),-7.2,10.4,9.6,0.2,-0.7,i,1.3,5.2
COc1c2ccccc2nc2ccccc12,-7.6,12.6,-14.7,5.5,-12.3,i,1.5,-12.7
CC1(C(=O)NCc2ccco2)Cc2c(-c3cccc(C(F)(F)F)c3)ccnc2O1 (stereo not given),x,8.9,x,11.6,-19.6,x,-23.5,x
O=C(NC1CCCCC1)C(=O)c1c(-c2ccccc2)[nH]c2ccccc12,x,-11.0,-0.9,-1.4,-0.6,i,5.8,3.5
CCS(=O)(=O)c1nc(S(=O)(=O)c2ccc(C)cc2)c(N2CC(C)OC(C)C2)s1 (stereo not given),2.6,10.6,10.1,1.1,2.0,i,-10.0,10.1
CCN(CC)CCCNC(=O)c1cn(CC)c2ccc(S(=O)(=O)N(C)C3CCCCC3)cc2c1=O,-18.2,-5.7,-4.8,-5.6,-0.8,i,-23.8,-4.9
CN(C1CCCCC1)S(=O)(=O)c1ccc2c(c1)CCC(=O)N2,x,-58.6,x,-0.6,-2.1,x,-2.5,x
CC(C)C(NC(=O)c1ccccc1NC(=O)c1ccco1)C(=O)O (stereo not given),-2.0,x,-5.9,-4.7,3.6,i,-5.2,3.9
O=C1C2CC=CCC2C(=O)N1c1n[nH]c(CCc2ccccc2)n1 (stereo not given),-1.7,-29.0,-7.5,-1.9,0.5,i,x,-8.6
O=S(=O)(c1ccccc1)n1ccc(-c2cnc(-c3ccccc3)s2)n1,17.5,-138.6,-1.8,-7.0,-10.8,i,-5.4,0.2
CN1C(=O)C(=O)N(CC(=O)Nc2ccccc2OC(F)F)C1=O,-10.4,x,x,-1.6,2.3,x,-6.6,x
CC(=O)NCCc1nc2ccccc2n1CCOc1cccc(C)c1,-31.1,8.3,0.0,-0.7,0.2,i,x,0.2
COc1cccc(NC(=O)CCP(C)(=O)O)c1,1.7,x,7.9,1.4,1.2,i,18.2,-8.3
CCOc1cc(N2CCOCC2)c(OCC)cc1NC(=O)c1ccc(OC)cc1,-6.0,-61.7,-12.2,3.0,0.3,i,-7.9,-0.9
COc1ccc(C2CC(c3ccccc3)=NN2C(=O)COC(=O)c2cccc(S(=O)(=O)N(C)C)c2)cc1 (stereo not given),5.6,-33.8,1.1,1.1,2.7,i,x,4.8
Cc1cc(C(=O)Nc2cnn(Cc3ccc(Cl)cc3Cl)c2)no1,x,0.3,0.4,0.5,1.2,i,2.6,7.6
COc1cc(/C=N/NC(=O)C2COc3ccccc3O2)ccc1O (stereo not given),-15.5,2.6,-10.2,-3.1,-1.6,i,x,7.6
O=C(CC1S/C(=N/N=C/c2cccnc2)NC1=O)Nc1ccccc1 (stereo not given),-9.4,7.8,-3.8,-0.2,-1.0,i,-3.1,u
CC(=O)N[C@@H](Cc1c[nH]c2ccccc12)C(=O)OCC(=O)Nc1ccc(S(=O)(=O)N(C)C)cc1,-8.4,-4.3,2.6,0.5,3.3,i,x,4.6
O=C(CSc1ccc(-c2ccc(F)cc2)nn1)N1CCN(c2ccccc2)CC1,-7.5,-47.9,-3.1,6.5,5.9,i,-16.1,-4.4
COc1ccc(NC(=O)c2cc(C3CCCCN3S(=O)(=O)c3c(C)noc3C)on2)c(C)c1 (stereo not given),x,5.9,x,-0.7,-1.5,x,-5.2,x
